Assay outcomes: PubChem BioAssay, several laboratories
WNV protease inh – inhibitors of WNV NS2B-NS3 protease, primary screen, biochemical, fluorogenic substrate; Genome polyprotein (West Nile virus), P06935; fluorogenic substrate Ex360/Em465; active compounds read low; z-score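 (tested at a level between 10 and 100 µM)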; 65,000 compounds, 0.18% hits;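 active = z-score at -3 or under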;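 note: score is relative to mean and spread of the compound wells of a plate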
Target sequence (P06935 1371-1501 limits assumed): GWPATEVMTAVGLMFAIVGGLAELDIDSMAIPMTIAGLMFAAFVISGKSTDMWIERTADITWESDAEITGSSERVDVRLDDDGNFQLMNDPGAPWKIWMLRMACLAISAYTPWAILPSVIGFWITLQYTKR
Target sequence (P06935 1502-1679 limits assumed): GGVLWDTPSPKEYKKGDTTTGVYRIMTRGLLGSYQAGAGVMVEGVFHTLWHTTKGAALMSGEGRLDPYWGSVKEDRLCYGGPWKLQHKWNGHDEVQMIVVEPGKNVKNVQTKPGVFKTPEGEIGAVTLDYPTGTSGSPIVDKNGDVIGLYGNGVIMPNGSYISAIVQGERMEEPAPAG
Hsc70 ATP site – Hsc70 inhibitors, probe displacement, primary screen, biochemical, fluorescence polarization (AID 568); 83,000 tested, under 10 active; one-dose displacement, % at 20 µM; IC50 in µM for titrated hits; Hsc70 fluorescence polarization, probe displacement; higher % means a stronger effect; strong numbers were not always called active;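 active = displacement above 50% without optical interference and an IC50 on retest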;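 note: ATPase domain with a fluorescein-tagged ATP probe; 0% = vehicle and 100% = excess ADP; read after one hour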
MT1-MMP promoter – inhibitors of MT1-MMP promoter transcription, cell-based, luciferase reporter, luminescence (AID 618); calls from a first round at 10 µM; hits with a dose series show EC50 in µM; MT1-MMP promoter luciferase reporter cells, luminescence; 87,000 compounds, 0.62% hits;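 active = over half of the reporter light lost at 10 µM or EC50 under 50 µM; inactive = the rest and hits that failed the dose series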;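 note: actives suppress MT1-MMP promoter-driven transcription so potencies describe inhibitors; HT1080 fibrosarcoma cells; overnight exposure; toxic or luciferase-blocking compounds were not removed from the actives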
* marks the source's active call; other numbers are inactive results; i = inactive; . = no result given.

structure,WNV protease inh,Hsc70 ATP site,MT1-MMP promoter
CCn1c(C(O)c2ccc(C)cc2)nc2ccccc21 (stereo unspecified),-0.08,-4.8%,i
Cc1csc(NC(=O)CSCC(=O)Nc2ccccc2)n1,0.03,9.0%,i
CCOC(=O)Cn1nnnc1CN(Cc1ccc(OC)cc1)Cc1cc2cc(C)cc(C)c2[nH]c1=O,-1.84,0.1%,i
COCc1nnc(NC(=O)c2ccc(S(=O)(=O)N(C)c3ccccc3)cc2)o1,2.45,6.9%,i
CC(C)CC(c1nnnn1C(C)C)N1CCN(c2cccc(Cl)c2)CC1 (stereo unspecified),-0.07,4.1%,i
O=C(C1COc2ccccc2O1)N1CCc2ccccc2C1 (stereo unspecified),.,-0.2%,i
CCn1cc(CN(C)C(=O)CSc2nc(-c3ccco3)cc(C(F)(F)F)n2)c(C)n1,-0.08,-10.6%,i
CCOC(=O)C1=C(C)N=c2s/c(=C/c3ccco3)c(=O)n2C1c1cccc(OC)c1 (stereo unspecified),0.24,-13.7%,i
CC1(C)Cc2ccccc2-c2nc(CN3CCOCC3)[nH]c(=O)c21,1.14,-1.0%,i
CCOC(=O)C1CCN(S(=O)(=O)c2ccc(OCC(=O)OC)cc2)CC1,0.66,4.6%,i
Cc1ccc2c(Cl)c(C(=O)NCCCn3ccnc3)sc2c1,.,0.1%,i
Cc1ccc(-c2c3c(nc4sc(C(N)=O)c(N)c24)CCC3)cc1,.,-1.1%,i
COCc1nnc(NC(=O)CCCOc2ccccc2)s1,-0.46,-4.2%,i
CCn1c(Cc2cccc3ccccc23)nnc1SCC(=O)Nc1nccs1,.,-2.2%,i
O=C(O)c1ccc(NC(=O)C2(c3ccccc3)CCOCC2)cc1,0.15,-1.4%,i
CCOC(=O)Nc1ccc(S(=O)(=O)NCCCN2CCOCC2)cc1,-0.05,7.2%,i
Cc1cccc(C)c1N1CCc2cn[nH]c21,.,0.7%,i
CC1=C(C(=O)OCC(C)C)C(c2ccsc2)NC(=O)N1 (stereo unspecified),.,-6.3%,i
Cn1nnc(NCc2cc(Br)ccc2OCc2cccs2)n1,-1.48,10.0%,i
CC(=O)N1CCc2cc(S(=O)(=O)CCC(=O)O)ccc21,-0.71,1.0%,i
CC(NC(=O)CCC1COc2ccccc2O1)c1ccccc1 (stereo unspecified),.,1.8%,i
O=c1c(O)c(-c2cccs2)oc2ccccc12,1.39,40.9%,i
Cc1nn(Cc2ccc(Cl)c(Cl)c2)c(C)c1NC(=O)c1cc(CC(C)C)on1,0.97,0.5%,i
O=C(Nc1nnc(CCc2ccccc2)s1)C1CCCO1 (stereo unspecified),-0.05,3.1%,i
COc1ccc2c(c1OC)C(=O)OC2Nc1ncccc1C (stereo unspecified),.,2.6%,i
O=C(CNC(=O)c1ccc(Cl)cc1Cl)NCCCn1ccnc1,.,1.5%,i
COc1cc(NC2=CC(=O)CC(C)(C)C2)cc(OC)c1,0.36,4.2%,i
CCN(CC)CCN1C(=O)c2oc3ccccc3c(=O)c2C1c1ccc(C)cc1 (stereo unspecified),-0.75,1.9%,i
CC(=O)Nc1ccc(NC(=O)Cn2c(CC(=O)N3CCCC3)nc3ccccc32)cc1,-0.49,-3.6%,i
CC(C)c1ccc(NC2(C#N)C(=O)Nc3ccccc32)cc1 (stereo unspecified),.,1.8%,i

Additional entries
structure,WNV protease inh,Hsc70 ATP site,MT1-MMP promoter
CCO/C(C)=C1\C(=O)N(CC)c2ccccc21,1.27,-1.8%,i
CC(=O)C1C(c2ccco2)c2c(noc2C)CC1(C)O (stereo unspecified),.,-3.3%,i
COc1ccc(-c2nnc3ccc(SCC(=O)N4CCCCCC4)nn23)cc1OC,2.66,2.6%,i
CC(NCC1(N2CCOCC2)CCCCC1)C(=O)N1CCc2ccccc21 (stereo unspecified),-2.99,2.9%,i
Cc1ccc(-c2noc(C3CCCCC3)n2)cc1,.,-73.0%,i
CC(=O)NCCC(=O)NCc1ccc(F)cc1,.,-2.6%,i
Cc1ccc(N(C(=O)Nc2ccccc2)C2=NCC(C)S2)cc1 (stereo unspecified),-1.22,-2.5%,i
Cc1cccc(NC(=O)CC2SC(=NC3CCCCC3)NC2=O)c1 (stereo unspecified),-1.22,0.3%,i
CCC(C)(C)NC(=O)CN(CC1CCCO1)C(=O)CCC(=O)Nc1nccs1 (stereo unspecified),-0.69,1.7%,i
CC(=O)NC(C)C(=O)OCC(=O)Nc1ccc(Br)cc1 (stereo unspecified),-0.54,2.2%,i
CC(C)(C)c1cc(Cc2ccccc2)[nH]n1,-1.57,-1.1%,i
CCCCCOC(=O)Cc1c(C)nc(-c2ccccc2)[nH]c1=O,-0.94,-4.2%,i
Cc1ccc(NC(=O)CC2SC3=NCCN3C2=O)cc1 (stereo unspecified),.,-2.6%,i
CCOc1ccc2c(c1)cc(CN(C(=O)CC)C1CCCCC1)c1nnnn12,-0.41,-2.1%,i
O=C(Nc1ccc2c(c1)OCO2)N1CCOCC1,-0.05,2.0%,i
CCOC(=O)C1CCN(C(=O)C2CC(=O)N(c3ccc(C)cc3)C2)CC1 (stereo unspecified),-0.41,-2.1%,i
COc1ccc(N2CCN(Cc3cc(=O)oc4cc(-c5ccccc5)c(O)cc34)CC2)cc1,-0.9,0.2%,i
COc1ccc(N2CCN(C(=O)c3ccc(S(=O)(=O)N4CCOCC4)cc3)CC2)cc1,-0.7,-0.3%,i
O=C(Nn1cnc2ccccc2c1=O)c1ccc(F)cc1Cl,-0.77,-2.1%,i
CCOc1ccccc1N(CC(=O)NC1CCCC1)C(=O)CCCC(=O)Nc1ccccn1,-0.86,-0.4%,i
CCOC(=O)C1CCN(C(=O)c2cc(OCC)c(OCC)c(OCC)c2)CC1,1.48,3.7%,i
COc1ccc2c(c1)c(=O)cc(C)n2CC(=O)NCc1ccco1,-0.45,3.1%,i
CC(C)Cc1ccc(C#N)c(SCC(N)=O)n1,-0.35,-4.4%,i
COc1ccc(S(=O)(=O)N2CCCC(C(=O)NCc3ccncc3)C2)cc1 (stereo unspecified),-0.44,10.3%,i
O=C(CS(=O)(=O)Cc1ccccc1)Nc1nc2ccccc2s1,-0.08,-0.5%,i
CCCS(=O)(=O)Nc1c(C(=O)O)[nH]c2ccccc12,-0.67,-1.2%,i
COc1ccc(/C(O)=C2/C(=O)C(=O)N(Cc3cccnc3)C2c2ccco2)cc1OC (stereo unspecified),.,-0.4%,i
CCOC(=O)c1c(N)sc2c1CCC(C)C2 (stereo unspecified),-0.47,1.1%,i
OCn1ncn(-c2ccccc2)c1=S,0.14,1.2%,i
O=C(CCOc1ccccc1)NCc1ccccc1,0.12,3.4%,i

(next part)
structure	WNV protease inh	Hsc70 ATP site	MT1-MMP promoter
CCc1nnc(NC(=O)c2ccc(S(=O)(=O)N3CCCc4ccccc43)cc2)o1	.	2.4%	i
CCc1nc(-c2cc3ccc(C)cc3[nH]c2=O)no1	0.69	-8.2%	i
CC(=O)N1CCc2cc(S(=O)(=O)NC(CC(C)C)C(=O)Nc3ccc4c(c3)OCCO4)ccc21 (stereo unspecified)	0.23	-0.2%	i
c1ccc(-n2nnnc2Oc2cccc3cccnc23)cc1	0.13	5.9%	i
Cc1oc(C)c(C(=O)NCCCC(=O)O)c1C(=O)NCCCC(=O)O	-0.74	4.6%	i
Cc1ccc(-n2nnnc2SCCNS(=O)(=O)c2ccccc2)cc1C	-0.79	-3.4%	i
COc1ccc(CC(=O)OCc2cc3cccc(C)c3[nH]c2=O)cc1	0.6	-1.6%	i
CC(C)(C)n1nc2c(c1NC(=O)COc1ccc3ccccc3c1)CS(=O)C2 (stereo unspecified)	-0.81	-1.8%	i

Remaining list, next part.
structure	WNV protease inh	Hsc70 ATP site	MT1-MMP promoter
CC1Cc2ccccc2N1C(=O)COC(=O)C1=COCCO1 (stereo unspecified)	-0.72	0.1%	i
CCC(=O)N(CCC(c1ccccc1)c1ccco1)Cc1cccs1 (stereo unspecified)	.	-4.2%	i
Cc1ccsc1C1C2=C(CCCC2=O)Nc2ncnn21 (stereo unspecified)	0.54	0.3%	i
COc1ccc(CCNC(=O)c2cnccn2)cc1	-0.65	-4.2%	i
Cc1ccc(-c2cc3c(nn2)-c2ccccc2C3=O)cc1	-0.14	-0.1%	.
O=C(O)CP(=O)(c1ccccc1)c1ccccc1	-0.05	5.3%	i
COc1ccc(Cl)cc1CN1CCN(c2nc(C)cc(C)c2C#N)CC1	-0.9	67.3%	i
O=Cc1ccc(OCc2ccccn2)cc1	.	1.1%	i

More entries.
structure	WNV protease inh	Hsc70 ATP site	MT1-MMP promoter
COc1ccc(CNC(=O)CN2C(=O)C3CCCN3c3ncc(Cl)cc32)cc1 (stereo unspecified)	.	-2.1%	i
Cc1cccc(NC(=O)CSC(N)=O)c1C	0.98	6.0%	i
CCCc1c(O)nc(SCc2ccccc2)[nH]c1=O	1.15	-4.3%	i
CCC(=O)N1CC2(C)CN(C(=O)CC)CC(C)(C1)C2	-0.87	-3.0%	i
Cc1ccc(C)n1NC(=O)c1ccccc1	.	5.0%	i
Cn1c(=O)[nH]c(=O)c2c1nc(N1CCCCC1)n2CC(O)CN1CCCCC1 (stereo unspecified)	-0.12	-4.4%	i
CC(=O)c1cc(F)c(N2CCN(C(=O)COc3ccc(F)cc3)CC2)cc1C	.	0.1%	i
O=C(COc1cccc2cccnc12)Nc1nccs1	0.24	-2.5%	i

Carrying on:
structure	WNV protease inh	Hsc70 ATP site	MT1-MMP promoter
CC(=O)N1CCN=C1SCc1ccc(C)cc1	0.49	2.0%	i
CCN1C(=O)C2C(c3cccc(F)c3)NC(C)(C(=O)OC)C2C1=O (stereo unspecified)	0.35	5.7%	i
Cc1ccc(C2CC(c3cccc(C)c3)n3nc(N)nc3N2)cc1 (stereo unspecified)	-2.1	1.0%	i
O=C(CCc1c[nH]c2ccccc12)NCC1CCCO1 (stereo unspecified)	1.37	-1.7%	i
CCN(CC)S(=O)(=O)N1CCC(C(=O)NC(C)CCc2ccccc2)CC1 (stereo unspecified)	1.45	1.0%	i
O=S(=O)(c1ccc(Cl)s1)N1CCN(c2ncccn2)CC1	-0.1	-1.5%	i
Cn1c(N)c(C(=O)COC(=O)C2(c3ccc(F)cc3)CCCC2)c(=O)n(C)c1=O	0.52	0.5%	i
Cc1ccc(-c2nn3c(C)nnc3c3ccccc23)cc1S(=O)(=O)NCc1ccco1	-0.62	0.3%	i

At a glance, part of the list above:
structure	WNV protease inh	Hsc70 ATP site	MT1-MMP promoter
O=C(COc1cccc2cccnc12)Nc1nccs1	0.24	-2.5%	i
CC(=O)N1CCN=C1SCc1ccc(C)cc1	0.49	2.0%	i
CCN1C(=O)C2C(c3cccc(F)c3)NC(C)(C(=O)OC)C2C1=O (stereo unspecified)	0.35	5.7%	i
Cc1ccc(C2CC(c3cccc(C)c3)n3nc(N)nc3N2)cc1 (stereo unspecified)	-2.1	1.0%	i
O=C(CCc1c[nH]c2ccccc12)NCC1CCCO1 (stereo unspecified)	1.37	-1.7%	i
CCN(CC)S(=O)(=O)N1CCC(C(=O)NC(C)CCc2ccccc2)CC1 (stereo unspecified)	1.45	1.0%	i

Carrying on.
structure	WNV protease inh	Hsc70 ATP site	MT1-MMP promoter
CCOC(=O)C1C(=O)NC(N2CCN(c3ccccc3)CC2)=NC1c1ccccc1 (stereo unspecified)	.	-1.7%	i
CCN(CC)c1ncnc2c1ncn2Cc1c(Cl)cccc1Cl	.	-3.7%	i
COc1ccc(C(=O)N/C(N)=N/c2nc3ccccc3o2)cc1	0.14	-7.0%	i
CN1CCN(CCCNc2nc3ccccc3c3nc(-c4ccccc4)nn23)CC1	-0.98	4.2%	i
CC1(C)CC2CC(C)(CN2c2ncnc3ccccc23)C1 (stereo unspecified)	0.26	9.9%	i
Cc1nn(-c2ccccc2)c2sc(C(=O)N3CCc4ccccc4C3)cc12	-0.56	-51.1%	i
COc1ccc(CNC(=O)C(c2cccs2)N(Cc2ccco2)C(=O)Cc2cccs2)cc1 (stereo unspecified)	.	3.1%	i
O=S(=O)(Nc1ccc(N2CCOCC2)cc1)c1ccccc1	.	6.3%	i

By substructure, those above with a tert-butyl group
structure	WNV protease inh	Hsc70 ATP site	MT1-MMP promoter
CC(C)(C)c1cc(Cc2ccccc2)[nH]n1	-1.57	-1.1%	i
CC(C)(C)n1nc2c(c1NC(=O)COc1ccc3ccccc3c1)CS(=O)C2 (stereo unspecified)	-0.81	-1.8%	i

Additional structures follow:
structure	WNV protease inh	Hsc70 ATP site	MT1-MMP promoter
O=C1C=C(N2CCN(C(=O)c3ccccc3)CC2)C2(CCCCC2)O1	-0.55	-1.2%	i
O=C(O)CCCCCNC(=O)c1cccc(Br)c1	1.18	-0.8%	i
CC(=O)OC(C(=O)Nc1ccccc1C)C(OC(C)=O)C(OC(C)=O)C(OC(C)=O)C(=O)Nc1ccccc1C (stereo unspecified)	.	-0.2%	i
O=C(c1cc(-c2cccc(O)c2)on1)N1CCc2ccccc2C1	-0.58	3.4%	i
COc1cc(C(C[N+](=O)[O-])c2c(-c3ccccc3)cc3ccccn23)cc(OC)c1OC (stereo unspecified)	.	-0.3%	i
CC1(C)CC(=O)C(C(C2=C(O)CC(C)(C)CC2=O)c2cccnc2)C(=O)C1 (stereo unspecified)	0.4	4.7%	i

Only part of the results is shown. The share of hits here may be higher or lower than overall.
